Compound activity (PubChem BioAssay)
PABP polyA inh: PABP poly(A) RNA binding inhibitors, primary screen, biochemical, fluorescence polarization, uHTS | inhibition, % at 35 µM | hit rate 1% among 290,000;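 active means 50% or more with normal probe brightness, or confirmed in later tests; inconclusive means above 50% with abnormal brightness, or retests that disagree; inactive means below 50% or failed in later tests; about a fifth of its hits are not listed in these tables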;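 further: calls also rest on retests at 20 µM and on dose response follow-up; controls were probe without protein and protein plus probe with vehicle; some compounds called inactive have numbers as strong as hits; many hits fall short of the cut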
Target sequence (P11940 whole entry, looked up): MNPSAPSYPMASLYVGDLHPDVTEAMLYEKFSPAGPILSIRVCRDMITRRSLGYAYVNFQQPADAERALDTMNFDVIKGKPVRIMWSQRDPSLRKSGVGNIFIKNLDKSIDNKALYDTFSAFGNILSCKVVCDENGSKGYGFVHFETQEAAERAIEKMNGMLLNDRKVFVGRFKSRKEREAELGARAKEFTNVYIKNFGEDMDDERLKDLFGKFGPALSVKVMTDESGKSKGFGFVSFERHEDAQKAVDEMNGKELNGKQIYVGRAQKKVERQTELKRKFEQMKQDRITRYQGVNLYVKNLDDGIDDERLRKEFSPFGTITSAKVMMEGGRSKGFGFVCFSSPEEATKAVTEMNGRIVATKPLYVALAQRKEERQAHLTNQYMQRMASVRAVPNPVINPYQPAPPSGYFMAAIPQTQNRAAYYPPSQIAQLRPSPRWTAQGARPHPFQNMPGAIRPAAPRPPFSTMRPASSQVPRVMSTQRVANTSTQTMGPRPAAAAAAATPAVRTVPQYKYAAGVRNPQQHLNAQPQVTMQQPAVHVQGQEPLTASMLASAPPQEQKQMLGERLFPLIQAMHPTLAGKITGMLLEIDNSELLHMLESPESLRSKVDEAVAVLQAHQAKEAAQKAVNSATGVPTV
Env fusion inh: inhibitors of HIV-1 Env-driven cell-cell fusion, primary screen, HeLa-JRFL effector, CEM21 target cells, luciferase; hit rate 1.1% among 360,000; AID 651610, 2012; inhibition, % at 12.3 µM;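 active means mean replicate inhibition score of at least 50 and every replicate individually at or above 50; inconclusive means only one of the two criteria met; inactive means mean below 50 and not all replicates reaching 50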;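 further: 0% = plate neutral controls and 100% = maraviroc near 300 nM; one replicate is shown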
CSC inhib: cancer stem cell viability inhibitors, primary screen, luminescence. AID 2717, 2010. cancer stem cell-like cells viability. inhibition, % at 7.5 µM. hit rate 1.1% among 300,000;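 active means mean at 75% or more and at least half the replicates too; inconclusive means mean and replicates disagree; tested in HMLE shEcad cells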;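 further: 0% = median of negative and 100% = median of positive control wells; the first replicate is given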
Rce1 inhib: yeast Rce1p protease inhibitors, primary screen, biochemical, fluorescence, cell-free homogeneous; CAAX prenyl protease 2 (Saccharomyces cerevisiae (strain ATCC 204508 / S288c)), Q03530; yeast membranes, quenched prenylated peptide cleavage fluorescence; calls only; hit rate 0.27% among 290,000;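 active means fall in fluorescence gain of 50% or more versus controls, with final raw signal at or below 3038400; inconclusive means same 50% fall but final raw signal above 3038400; inactive means fall in fluorescence gain under 50%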;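 further: plate controls were neutral control wells for no effect and wells lacking membranes for full effect; tested at 10 µM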
Target sequence (Q03530 whole entry, looked up): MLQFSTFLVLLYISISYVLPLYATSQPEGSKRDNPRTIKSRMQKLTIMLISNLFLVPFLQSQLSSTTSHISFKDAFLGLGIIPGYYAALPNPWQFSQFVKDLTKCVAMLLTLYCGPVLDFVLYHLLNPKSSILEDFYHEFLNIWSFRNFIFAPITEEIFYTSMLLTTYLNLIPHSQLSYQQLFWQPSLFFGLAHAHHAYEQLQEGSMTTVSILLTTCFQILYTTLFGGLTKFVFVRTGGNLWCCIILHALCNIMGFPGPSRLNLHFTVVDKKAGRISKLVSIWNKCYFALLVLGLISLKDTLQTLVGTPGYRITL
Yeast UUG start: modulators of yeast start codon fidelity, primary screen, whole organism, S. cerevisiae, single point, plate reader. activity score, % at 18.7 µM. S. cerevisiae UUG-firefly luciferase reporter, luminescence/redox ratio. hit rate 0.13% among 350,000;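 active means replicate mean at a twofold rise or more, about +100% in these data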;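 further: firefly luciferase made from a UUG start codon reports start codon fidelity; reporter light over untreated wells divided by growth signal over untreated wells; some hits fall short of that in this replicate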
eIF4H FP inh: human eIF4H binding inhibitors, primary screen, translation initiation inhibitor project, biochemical, uHTS, fluorescence polarization; Eukaryotic translation initiation factor 4H (Homo sapiens), Q15056; eIF4H fluorescence polarization binding assay; inhibition, % at 35 µM; hit rate 0.94% among 290,000;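 active means 50% or more with normal probe brightness, or confirmed in later tests; inconclusive means above 50% with abnormal brightness, or retests that disagree; inactive means below 50% or failed in later tests; about a fifth of its hits are not listed in these tables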;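 further: calls also rest on retests at 20 µM and on dose response follow-up; 0% = protein and probe with vehicle and 100% = probe without protein; strong numbers were not always called active; many hits fall short of the cut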
MT1-MMP act inh: blockers of MT1-MMP proenzyme processing, primary screen, HT1080 RFP-PRO-GFP cells, GFP/RFP fluorescence; Matrix metalloproteinase-14 (Homo sapiens), P50281; GFP/RFP ratio fluorescence, overnight; percent of plate control window, DMSO zero; GFP/RFP ratio change, % at 20 µM; hit rate 0.061% among 360,000;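 active means GFP/RFP ratio change of at least 30% with cell ATP level not reduced by more than half and red fluorescence within 50% of control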; further: strong numbers were not always called active
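Assay system: RFP-PRO-GFP reporter HT1080 cells; read-out basis: GFP/RFP fluorescence ratio; benchmarks: DMSO wells and RFP-L50D-GFP cells; doses: 20 µM single dose, 1% DMSO; schedule: overnight cell settling, then overnight compound exposure, 37 °C, 5% CO2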
eIF4H FP inh retest: recorded beside eIF4H FP inh, whose call it bears; inhibition, %; compound at 20 µM; confirmation average;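 mean of two retest wells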
PABP polyA inh retest: recorded beside PABP polyA inh, whose call it bears; inhibition, %; compound at 20 µM; confirmation repeats;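 mean of two retest wells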
MT1-MMP act inh RFP: also measured in MT1-MMP act inh; calls as there; RFP signal change, %; measured here: RFP expression control read;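 0 = vehicle wells; hits needed this value within 50% of zero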
The depositor's hits bear a star; i = inactive; ? = inconclusive; nt = not tested or not shown; + = active, no number; & = joins results of further samples.

SMILES | PABP polyA inh | Env fusion inh | CSC inhib | Rce1 inhib | Yeast UUG start | eIF4H FP inh | MT1-MMP act inh | MT1-MMP act inh RFP | others
CCN(CC)C1CCN(Cc2c(C(=O)N3CCCCCCC3)nc3ccc(Cl)cn23)C1 (stereo unspecified) | 20 | 15 | -13 | nt | -6 | 63 | -4 | 3 | eIF4H FP inh retest=14;PABP polyA inh retest=39
COc1cc(OC)cc(C(=O)NNC(=O)C2CCC2)c1 | nt | 3 | nt | nt | -24 | nt | 0 | 1
CC(C(=O)NCC1CCCCC1)N(C)Cc1ccc(Cl)cc1 (stereo unspecified) | 2 | 11 | -9 | i | 6 | 4 | -2 | -8
COc1ccccc1NC(=O)CN(c1ccc(C23CC4CC(CC(C4)C2)C3)cc1)S(C)(=O)=O | 2 | 104* | 26 | + | -18 | -2 | -17 | -14
COCCNC(=O)c1ccc2c(c1)nc(C)n2-c1cc(OC)c(OC)c(OC)c1 | 8 | nt | 2 | i | -14 | -12 | 3 | 3
O=C(O)c1cc(S(=O)(=O)N2CCCc3ccccc32)ccc1Cl | 3 | 6 | -13 | i | -8 | -6 | -5 | 1
C[C@@H]1CN([C@H](C)CO)C(=O)CCCn2nncc2CO[C@@H]1CN(C)S(=O)(=O)c1ccc(C#N)cc1 | nt | -6 | nt | nt | -17 | nt | 2 | 7
Cc1ccc(C)c(OCCC(=O)OCC(=O)Nc2cc(S(=O)(=O)N3CCOCC3)ccc2C)c1 | nt | -14 | -6 | i | 2 | nt | 2 | 8
Cn1c(=O)[nH]c(=O)c2c1nc(N1CCCCCC1)n2CCN1CCCCCC1 | -6 | -65 | -8 | i | -2 | -2 | 1 | 0
C=CCn1c(C(C)NC(=O)C(C)(C)C)nc2ccccc21 (stereo unspecified) | 1 | -23 | nt | i | -17 | 10 | 2 | 4
COc1cc(CC(=O)N2CCN(C(=O)C3CCCO3)CC2)cc(OC)c1OC (stereo unspecified) | nt | -24 | 6 | nt | -13 | nt | -4 | -1
Cn1c(N)c(S(=O)(=O)N2CCN(Cc3ccccc3)CC2)c(=O)n(C)c1=O | 6 | -2 | nt | i | nt | 4 | 1 | 4
CCOc1ccc(-n2c(Cc3ccccc3)nnc2SCc2c(C)noc2C)cc1 | 2 | nt | nt | i | -21 | -4 | 0 | -4
O=C(NCc1cc(C(F)(F)F)cc(C(F)(F)F)c1)c1cc(-c2cc(F)ccc2OCC2CCCO2)n[nH]1 (stereo unspecified) | nt | 4 | nt | nt | -13 | nt | 2 | 4
CSc1cccc(-c2nnc(NC(=O)c3cccc(N4C(=O)CCC4=O)c3)o2)c1 | nt | nt | 17 | i | -18 | nt | 2 | 3
CCc1ccc2oc(=O)cc(CN3CCN(c4ccc(F)cc4)CC3)c2c1 | -10 | nt | -7 | i | -20 | 4 | -7 | -14
Cc1c(C(=O)Oc2cccc3ccccc23)cnn1-c1ccccc1 | -8 | nt | -6 | i | -14 | -9 | -3 | -6
CC(C)(C)OC(=O)N/N=C\C=C\c1ccc2c(c1)OCO2 | 12 | -17 | 6 | nt | nt | -6 | 4 | 3
CSc1ccccc1NC(=O)CSc1n[nH]c(C)c1[N+](=O)[O-] | -7 | -7 | -24 | ? | nt | -11 | 0 | -5
C[C@@H]1CN([C@H](C)CO)C(=O)CCCn2nncc2CO[C@H]1CN(C)S(=O)(=O)c1ccc2c(c1)OCCCO2 | nt | -3 | nt | nt | 0&16 | nt | 2 | 5
Cc1cccc(/C=C(\C(=O)O)c2ccc(S(=O)(=O)N3CCCC3)s2)c1 | nt | -24 | -12 | nt | -1 | nt | 8 | 3
CCOc1ccccc1CNS(=O)(=O)c1ccc2[nH]c(=O)sc2c1 | -5 | nt | -6 | i | 0 | -4 | 2 | -9
Cc1ccccc1-n1c(SCc2csc(Nc3ccccc3)n2)nnc1-c1cccnc1 | 1 | -58 | -11 | i | -19 | 1 | -3 | -14
CCc1ccc(NC(=O)c2cnc(N3CCN(c4ccccn4)CC3)c3ccccc23)cc1 | 6 | 35 | 19 | + | nt | 6 | -12 | -25
O=C(CCc1nc2ccccc2c(=O)[nH]1)Nc1ccccc1N1CCCC1 | nt | -88 | -13 | i | -11 | nt | 3 | 4
O=C(CNC(=O)c1ccccc1Cl)c1ccccc1 | 16 | -41 | -16 | i | -16 | -8 | -2 | -1
O=C1OC(C(=O)NCc2ccccc2)Cc2ccccc21 (stereo unspecified) | -1 | 11 | -10 | i | nt | -1 | -6 | -9
CCC(C)NC(=O)CC1Oc2ccc(C)cc2NC1=O (stereo unspecified) | -3 | -4 | nt | i | -11 | 4 | -1 | -2
COc1ccc(N2Cc3ccccc3/C2=N\C(=O)Nc2ccccc2)cc1 | -6 | 5 | -10 | i | nt | 1 | 2 | 3
CCC(CC)c1nnc(NC(=O)C23CC4CC(CC(NC(C)=O)(C4)C2)C3)s1 | -2 | 8 | -11 | i | 10 | -17 | -1 | -4
Fc1cccc(CNC2CCN(CCc3ccccc3)CC2)c1 | 9 | 7 | 10 | i | -18 | 1 | 5 | 1
O=C(COc1ccc2oc(-c3ccccc3)cc(=O)c2c1)NCc1ccco1 | 19 | nt | -11 | i | -8 | 38 | 2 | -4
CN1CCN(C(=S)NC(=O)c2ccc(S(=O)(=O)N3CCOCC3)cc2)CC1 | -1 | -3 | nt | i | nt | -6 | -3 | 0
CCc1ccc(NC(=O)C2CCCN2C(=O)NC2CCCCC2)cc1 (stereo unspecified) | 2 | 0 | -12 | i | -12 | 0 | -4 | -1
S=c1[nH]nc(C2CCCCC2)n1/N=C/c1cccc(Br)c1 | 12 | 8 | nt | i | -5 | 2 | 1 | 2
O=C(Oc1ccccc1Cl)c1ccc2c(=O)n3c(nc2c1)CCC3 | nt | -5 | -5 | i | nt | nt | 0 | 5
COc1ccc(C(CNC(=O)COc2ccc(-c3ccccc3)cc2)N2CCOCC2)cc1 (stereo unspecified) | -6 | 41 | -10 | nt | -4 | -4 | -3 | -10
c1ccc(-c2cc(-c3nn4c(-c5ccco5)nnc4s3)c3ccccc3n2)cc1 | 15 | nt | nt | i | -19 | 43 | -5 | -3
CSc1cccc(NC(=O)CN(c2ccccc2)S(=O)(=O)N(C)C)c1 | 9 | -34 | -4 | i | -8 | 18 | -2 | -1
COc1cc(C(=O)NCCOc2ccc(C)c(C)c2)cc(OC)c1OC | 6 | 5 | -1 | i | 0 | 5 | -1 | -1
CN(C)c1ccnc2sc(C(=O)NCc3ccccc3)c(N)c12 | 8 | nt | 2 | i | -17 | -8 | 0 | 2
O=C(NC1CCCc2ccccc21)C1CCN(S(=O)(=O)c2cccc(C(F)(F)F)c2)CC1 (stereo unspecified) | -12 | nt | -8 | i | 2 | -11 | 1 | -4
O=C(CSc1nnc(SCc2ccc(Cl)cc2)s1)N/N=C/c1ccc(C(=O)O)cc1 | 2 | -11 | -3 | i | -22 | 0 | 2 | -4
O=C(Nc1ccccc1)Nc1nnc(COc2ccccc2F)s1 | 11 | 1 | 36 | i | nt | 7 | 1 | 1
CCOCCn1c(C(C)C)nc2ccccc21 | 2 | -45 | 5 | i | -1 | -10 | 1 | 7
COc1ccccc1NC(=S)NC(C)C(c1cccs1)N1CCOCC1 (stereo unspecified) | -1 | 22 | -19 | i | -29 | -1 | -1 | 3
COc1ccc(C2N(c3ccc(Cl)cc3)C(=O)C3CCCN32)cc1 (stereo unspecified) | -4 | -17 | -9 | i | 9 | -3 | 2 | 8
c1ccc(OCCNc2ccn3nc(-c4ccc(OCCN5CCOCC5)cc4)cc3n2)cc1 | nt | -13 | nt | nt | -4 | nt | 4 | -3
O=C1NC(=O)N(c2ccc(Cl)cc2)C(=O)/C1=C/c1ccc2c(c1)CCN2Cc1ccccc1Cl | nt | -3 | nt | nt | -17 | nt | -2 | -5
NC(=O)c1ccsc1NC(=O)CS(=O)(=O)c1ccc(Cl)cc1 | nt | -3 | 5 | i | -15 | nt | -2 | -1
CN(C)S(=O)(=O)c1ccc(N2CCCC2)c(C(=O)NCC2CCCCC2)c1 | -5 | 24 | 6 | i | nt | -3 | -1 | -1
CCn1c2ccccc2c2cc(NC(=O)CSc3nnnn3-c3ccccc3)ccc21 | -6 | nt | 20 | i | -21 | 1 | 7 | 3
CCc1nc2ccc(C(=O)NCc3ccccc3OC)cn2c1N(C)C(=O)Cc1ccccc1 | nt | -45 | nt | nt | -15 | nt | -1 | 3
CC1=CC2=NC(=O)/C(=C\c3cn(C)c4ccccc34)C(=N)N2O1 | -1 | -19 | -2 | i | nt | 66 | 1 | 6 | eIF4H FP inh retest=2;PABP polyA inh retest=4
Cc1ccn2cc(-c3cccc(S(=O)(=O)N4CCCC4)c3)nc2c1 | -2 | -16 | -15 | i | 15 | -6 | 8 | -17
Cc1ccc(NC(=O)CSCc2n[nH]c(=O)[nH]2)c(Br)c1 | 5 | -14 | 0 | i | nt | -12 | 0 | 2
O=C(Oc1coc(CSc2ncccn2)cc1=O)c1ccccc1[N+](=O)[O-] | -6 | 0 | 6 | i | nt | -3 | 0 | 2
COC(=O)CSc1nc(N)c2c3c(sc2n1)CCCC3 | -6 | nt | -8 | i | -5 | -12 | -1 | 7
O=c1c(-c2ccccc2)[n+]([O-])c2ccccc2n1O | 18 | -67 | -7 | i | -16 | 9 | -8 | -3
CCN(CC)C(=O)Oc1ccc(Br)cc1C(=O)Nc1ccc(F)cc1F | 7 | 18 | -5 | nt | nt | -1 | 0 | 2

Carrying on.
SMILES | PABP polyA inh | Env fusion inh | CSC inhib | Rce1 inhib | Yeast UUG start | eIF4H FP inh | MT1-MMP act inh | MT1-MMP act inh RFP | others
COc1ccc(OC)c(NC(=O)C2(C)CCN2C(=O)C2(c3ccccc3)CCCC2)c1 (stereo unspecified) | nt | 20 | nt | nt | 5 | nt | -7 | -3
CN(C)S(=O)(=O)c1ccc(NC(=O)CN2CCc3ccccc32)cc1 | 6 | -8 | -3 | i | nt | -3 | -2 | 5
C/C=C/c1ccc(OCC(O)CN(C)Cc2ccc(SC)cc2)c(OC)c1 (stereo unspecified) | 1 | -4 | 8 | i | 1 | -10 | -2 | 0
COc1ccc(NC2CCCN(C(=O)CSc3ccccn3)C2)cc1OC (stereo unspecified) | 0 | 12 | -7 | i | -15 | 5 | -1 | 2
CCCOc1ccc(C(=O)CCNc2cccc(Cl)c2)cc1 | -4 | -21 | nt | i | -4 | -7 | 4 | 2
C/C(=N\NC(=O)c1ccc(NS(=O)(=O)c2cccs2)cc1)c1ccccc1 | 8 | 12 | nt | i | nt | 5 | 3 | 4
COc1ccc2[nH]c3c(c2c1)CCN1C(=O)C(CC(=O)NCC24CC5CC(CC(C5)C2)C4)C[C@H](C(=O)N2CCCCC2)[C@@]31C (stereo partly specified) | nt | 27 | nt | nt | 6 | nt | -12 | -18
Cc1cc(=O)n2[nH]cnc2n1 | 0 | -14 | -6 | i | nt | -1 | 0 | 4
